Screening data: PubChem, National Center for Advancing Translational Sciences (NCATS)
EPAC2 ant val: human EPAC2 antagonism, validation; EPAC2 Rap1B BODIPY-GDP exchange, fluorescence; Potency, µM (doses to about 112 µM), inactives show at the top dose activity, negative = inhibition, actives largely listed as inhibitors; hit rate 1.7% among 16,000; AID 1645886; Q8WZA2; active = well fitted inhibition curve with a large enough effect; inconclusive = small, poorly fitted or top-dose-only effect; inactive = no such curve, though single readings can be large or run the other way;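 note: 100% = activation by cAMP agonist control; nearly all actives have a fitted effect of over 40% in size; the record reuses the description of the EPAC1 agonist screen; inactives centre near -10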
Target sequence (Q8WZA2 whole entry, looked up): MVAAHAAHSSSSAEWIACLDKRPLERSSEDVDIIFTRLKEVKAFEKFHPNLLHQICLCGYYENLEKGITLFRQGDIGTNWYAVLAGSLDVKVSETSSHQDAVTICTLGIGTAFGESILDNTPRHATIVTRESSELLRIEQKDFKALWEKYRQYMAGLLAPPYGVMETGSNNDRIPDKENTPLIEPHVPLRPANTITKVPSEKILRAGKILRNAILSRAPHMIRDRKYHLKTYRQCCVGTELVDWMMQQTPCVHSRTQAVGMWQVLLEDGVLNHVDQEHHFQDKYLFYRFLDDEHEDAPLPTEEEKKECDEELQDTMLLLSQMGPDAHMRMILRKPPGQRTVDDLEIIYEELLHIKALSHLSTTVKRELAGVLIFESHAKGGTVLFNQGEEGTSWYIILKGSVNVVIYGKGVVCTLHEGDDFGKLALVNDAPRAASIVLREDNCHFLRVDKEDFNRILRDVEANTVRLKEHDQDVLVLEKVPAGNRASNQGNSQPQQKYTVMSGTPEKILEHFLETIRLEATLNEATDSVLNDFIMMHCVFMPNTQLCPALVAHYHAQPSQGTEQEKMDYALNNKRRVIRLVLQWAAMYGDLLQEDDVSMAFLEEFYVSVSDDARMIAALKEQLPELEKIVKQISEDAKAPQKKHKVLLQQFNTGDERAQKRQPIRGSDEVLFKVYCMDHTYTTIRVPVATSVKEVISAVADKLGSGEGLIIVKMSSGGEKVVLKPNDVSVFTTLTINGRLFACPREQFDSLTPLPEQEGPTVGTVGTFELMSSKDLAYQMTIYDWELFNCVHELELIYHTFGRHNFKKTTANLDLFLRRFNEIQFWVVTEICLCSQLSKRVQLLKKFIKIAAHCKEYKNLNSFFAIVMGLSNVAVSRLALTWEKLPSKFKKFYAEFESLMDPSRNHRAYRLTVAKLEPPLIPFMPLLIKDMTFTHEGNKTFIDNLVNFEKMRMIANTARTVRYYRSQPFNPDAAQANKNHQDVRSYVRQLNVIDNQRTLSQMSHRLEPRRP
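Normalized against a 6.5 mM cAMP agonist control, compounds were tested on 100 nM EPAC2 exchanging Rap1B-bound BODIPY-GDP (250 nM) for 50 uM GDP. Fluorescence drop (ex 480, em 540 nm) was tracked at room temperature over 30 min at 5-min intervals.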
* = called active by the depositor; ? = inconclusive; & = joins results of further samples; [ ] = another dose, or the depositor's remark. Potency is the fitted concentration of half-maximal effect. Not all compounds are listed; rates above refer to the full screens.

SMILES | EPAC2 ant val
COC(C)(C)CCCC(C)C/C=C/C(C)=C/C(=O)O (centres undefined) | 6%
CC(C)NCC1CCc2cc(CO)c([N+](=O)[O-])cc2N1 (centres undefined) | 8%[56.6 µM]
COc1ccc(-c2cn(Cc3ccc(C(=O)c4ccccc4)cc3)nn2)cc1 | ?
Cc1ncc2c(c1CNS(=O)(=O)N(C)C)CCN(C(=O)c1[nH]c3ccc(Cl)cc3c1C)C2 | ?
CCC1CN(CCNC(=O)C(C)(C)O)Cc2cc(OC)ccc2O1 (centres undefined) | -13%
COc1ccc(OC)c(CN2CCCC(c3nc(C)ncc3-c3ccc(F)cc3)C2)c1 (centres undefined) | -9%
CC[C@@]1([C@@H]2O[C@@H]([C@H]3O[C@@](O)(CO)[C@H](C)C[C@@H]3C)C[C@@H]2C)CC[C@H]([C@]2(C)CC[C@]3(C[C@H](O)[C@@H](C)[C@@H]([C@@H](C)[C@@H](OC)[C@H](C)C(=O)O)O3)O2)O1 (stereo in doubt) | -12%&-5%
CN(C)c1ccc(-c2cc(-n3ccnc3)ncn2)cc1 | -17%
COc1cccc(CN(C)C(=O)c2cnn(-c3ncc4c(n3)-c3ccccc3CCC4)c2C)c1 | ?
COC(=O)c1c(OCc2ccccn2)cc(=O)n2c1CCN(Cc1ccc3c(c1)CCCN3C)CC2 | ?
CCCN1CCC(=O)N(CCSc2ccccc2)CC1 | -18%
CC(=O)N1CCC[C@H]1C(=O)NCC1Cc2cc(-c3cccc(OC(F)(F)F)c3)ccc2O1 (some centres undefined) | 71µM*
COc1cccc(-c2ccc3ncnc(NCc4cnc(C)cn4)c3c2)c1 | -33%
CSc1nc(C(=O)NCc2nc(-c3cccc(NC(=O)c4ccc(C)s4)c3)oc2C)cs1 | -17%
O=C1NC(=O)C(c2ccccc2[N+](=O)[O-])=C1Nc1ccc(O)c(Cl)c1 | ?

By substructure: the compounds so far with sulfur (3)
SMILES | EPAC2 ant val
Cc1ncc2c(c1CNS(=O)(=O)N(C)C)CCN(C(=O)c1[nH]c3ccc(Cl)cc3c1C)C2 | ?
CCCN1CCC(=O)N(CCSc2ccccc2)CC1 | -18%
CSc1nc(C(=O)NCc2nc(-c3cccc(NC(=O)c4ccc(C)s4)c3)oc2C)cs1 | -17%

(next part)
SMILES | EPAC2 ant val
CN(C)c1ccc(/C=C/c2ccnc3ccccc23)cc1[N+](=O)[O-] | -29%
COc1ccc(C(=O)N2CCC3(CC2)CN(C(=O)NC(C)C)C3)cc1 | -19%
CC(C)(CNC(=O)c1cnn(-c2ncc3c(n2)-c2ccccc2CC3)c1C1CC1)N1CCOCC1 | 19%
c1ccc(-c2cn(CC3CCCCC3)nn2)cc1 | ?
COc1ccc2cnoc(=O)c2c1OC | 4%
CN(CCO)C(=O)c1cn(C2CCN(Cc3ccc4ccccc4c3)CC2)nn1 | -25%
O=C(NCCc1ccccc1)[C@@H]1CC=C[C@@H]2CCN(C3CCCCC3)C(=O)[C@@H]21 | -37%
[O-][N+](=Nc1ccccc1)c1ccccc1 | 3%
CCN(CC)CCNC(=O)c1cnn(-c2nccc(-c3cc4ccccc4o3)n2)c1C | -7%
N#Cc1cccc(-c2cncnc2NCc2ccccc2)c1 | -20%
CC(=O)O[C@H]1C[C@@H]2CC[C@@H]3[C@H](CC[C@@]4(C)[C@H]3C[C@H]([N+]3(C)CCCCC3)[C@@H]4OC(C)=O)[C@@]2(C)C[C@@H]1N1CCCCC1 | 11%
COc1cc(-c2cc(C)c3c(OC)ccc(OC)c3n2)cc2c1OCCN(C(=O)C(C)c1n[nH]c(=O)c3ccccc13)C2 (centres undefined) | -3%
CCCCC[C@H]1CN(Cc2ccc(OC)cc2)C(=O)[C@@H]1CC(=O)NCc1ccccc1 | ?
COc1cc(OC)c2c(=O)c(-c3ccc4c(c3)OCO4)coc2c1 | -5%
CCN(CC)CCNC(=O)COc1ccc(Cl)cc1 | -18%

7 records drawn at random from the list so far, as already listed:
SMILES | EPAC2 ant val
N#Cc1cccc(-c2cncnc2NCc2ccccc2)c1 | -20%
COc1ccc(C(=O)N2CCC3(CC2)CN(C(=O)NC(C)C)C3)cc1 | -19%
CCCCC[C@H]1CN(Cc2ccc(OC)cc2)C(=O)[C@@H]1CC(=O)NCc1ccccc1 | ?
CN(C)c1ccc(/C=C/c2ccnc3ccccc23)cc1[N+](=O)[O-] | -29%
[O-][N+](=Nc1ccccc1)c1ccccc1 | 3%
CC(C)(CNC(=O)c1cnn(-c2ncc3c(n2)-c2ccccc2CC3)c1C1CC1)N1CCOCC1 | 19%
O=C(NCCc1ccccc1)[C@@H]1CC=C[C@@H]2CCN(C3CCCCC3)C(=O)[C@@H]21 | -37%

Other structures follow:
SMILES | EPAC2 ant val
N[C@H](CC(=O)O)C(=O)O | 0%&8%&-22%
COC(=O)[C@@H]1C[C@H](NC(=O)c2cc(C(F)(F)F)ccc2Cl)CN1Cc1cccc(O)c1 | -23%
CC(C)N1CCN(c2ccc(OC[C@H]3CO[C@](Cn4cncn4)(c4ccc(Cl)cc4Cl)O3)cc2)CC1 | -8%[56.6 µM]
CN(C)C(=O)c1ccc(-c2nc(NCc3cccnc3)c3ccccc3n2)cc1 | -19%
C[C@@H](CC#N)CN1CC[C@H](C(C)(C)C)CCC1=O | -9%
CCCn1c(=O)[nH]c2nc(-c3ccc(S(=O)(=O)O)cc3)[nH]c2c1=O | ?
O=C(C1CCOC1)N1CCOc2ccc(CN3CCC(Oc4cccnc4)CC3)cc2C1 (centres undefined) | 6%
O=C(O)CCc1nc(-c2ccccc2)c(-c2ccccc2)o1 | -27%&-12%&-18%
Cn1c(=O)c2c(ncn2C)n(C)c1=O | 7%&-11%&-5%&-1%
c1ccc(-c2onc(-c3ccco3)c2-c2ccc3[nH]ccc3c2)cc1 | ?
COc1cccc(Nc2ncc3nc(C)c(=O)n(CCc4ccccc4)c3n2)c1 | -8%
Cc1nc2cnc(Oc3ccccc3)nc2n(CCc2ccccc2)c1=O | -27%
O=c1nc2ccccc2c2n1CC(CN1CCN(c3ccccc3)CC1)N2 (centres undefined) | -10%
Cc1ccccc1C1(CC(=O)N2CCN(C)CC2)CC(=O)N(Cc2ccncc2)C1=O (centres undefined) | -6%
CCCCCCCCCCCCC/C=C\[C@@H](O)[C@H](CO)NC(C)=O | ?

Structural class: the entries above containing a halogen
SMILES | EPAC2 ant val
Cc1ncc2c(c1CNS(=O)(=O)N(C)C)CCN(C(=O)c1[nH]c3ccc(Cl)cc3c1C)C2 | ?
COc1ccc(OC)c(CN2CCCC(c3nc(C)ncc3-c3ccc(F)cc3)C2)c1 (centres undefined) | -9%
CC(=O)N1CCC[C@H]1C(=O)NCC1Cc2cc(-c3cccc(OC(F)(F)F)c3)ccc2O1 (some centres undefined) | 71µM*
O=C1NC(=O)C(c2ccccc2[N+](=O)[O-])=C1Nc1ccc(O)c(Cl)c1 | ?
CCN(CC)CCNC(=O)COc1ccc(Cl)cc1 | -18%
COC(=O)[C@@H]1C[C@H](NC(=O)c2cc(C(F)(F)F)ccc2Cl)CN1Cc1cccc(O)c1 | -23%
CC(C)N1CCN(c2ccc(OC[C@H]3CO[C@](Cn4cncn4)(c4ccc(Cl)cc4Cl)O3)cc2)CC1 | -8%[56.6 µM]

Continued.
SMILES | EPAC2 ant val
COc1ccc(NC(=O)c2ccc(-c3ccc(-c4noc(C)n4)cc3C)cc2)cc1N1CCN(C)CC1 | ?
O=S1(=O)CCOC[C@H](c2ccccc2)N1Cc1ccccc1 | ?
Cn1c([N+](=O)[O-])cnc1COC(N)=O | -10%
OCc1cc(C(O)CNCCCCCCOCCCCc2ccccc2)ccc1O (centres undefined) | -4%&-8%&-18%
CC(C)(C)c1ccc(/C=C/C(=O)Nc2ccc3c(c2)OCCO3)cc1 | -12%
O=C(c1ccncc1)N1CCC[C@@]2(CCN(c3ncccn3)C2)C1 | -14%
Cc1ccc2c(CC(=O)N3CCOc4ccc(CN5CCOCC5)cc4C3)cc(=O)oc2c1 | -16%
Cc1ccc2ccccc2n1 | 10%
COc1ccc(C(=O)Oc2ccc3c(-c4ccc(OC)cc4)cc(=O)oc3c2)cc1 | 21%
O=C1CCN(Cc2ccccc2)CCN1[C@H](COc1ccccc1)c1ccccc1 | ?
CC(CN(C)C)CN1c2ccccc2Sc2ccc(C(F)(F)F)cc21 (centres undefined) | -4%
CC(C)NC(=O)N1CC[C@@]2(CCCN(C(=O)c3ccco3)C2)C1 | -27%
O=C(c1ccncc1)N1CCC2(CC1)CCN(c1ccncc1)CC2 | -3%
C[N+]1(CC2COC(c3ccccc3)(C3CCCCC3)O2)CCCCC1 (centres undefined) | -21%
COc1ccc(OC)c(-c2ccnc(-n3ncc(C(=O)N(C)CCc4ccccn4)c3C)n2)c1 | 2%

Another view of part of the listing above.
COc1ccc(C(=O)N2CCC3(CC2)CN(C(=O)NC(C)C)C3)cc1
  EPAC2 ant val: -19%

O=S1(=O)CCOC[C@H](c2ccccc2)N1Cc1ccccc1
  EPAC2 ant val: ?

(further entries)
SMILES | EPAC2 ant val
Clc1ccccc1-c1cc(NCc2ccccc2)ncn1 | ?
Cc1ncc2c(c1CNS(=O)(=O)c1cccs1)CCN(C(=O)/C=C/c1ccc(F)cc1F)C2 | -21%
COCC(=O)N1CCC2(CCN(Cc3ccccc3OC)CC2)CC1 | -10%
COc1cc(C(C)=O)cc(OC)c1O | -11%
CC(=O)OC1CC2C(C)(C)C(=O)CC[C@]2(C)C2CC[C@]3(C)C(=CC(=O)OC3c3ccoc3)[C@]12C (some centres undefined) | -16%
CN[C@H](CC(C)C)C(=O)N[C@H]1C(=O)N[C@@H](CC(N)=O)C(=O)N[C@H]2C(=O)N[C@H]3C(=O)N[C@H](C(=O)N[C@@H](C(=O)O)c4cc(O)cc(O)c4-c4cc3ccc4O)[C@H](O)c3ccc(c(Cl)c3)Oc3cc2cc(c3O[C@@H]2O[C@H](CO)[C@@H](O)[C@H](O)[C@H]2O[C@H]2C[C@](C)(N)C(O)[C@H](C)O2)Oc2ccc(cc2Cl)[C@H]1O (some centres undefined) | -14%&-2%
O=[N+]([O-])c1c(Cl)cccc1-c1c[nH]cc1Cl | ?
CN(CCO)C(=O)c1cn(C2CCCN(Cc3ccc4ccccc4c3)C2)nn1 (centres undefined) | -5%
O=C(c1ccncc1)N1CCC2(CCCN(c3ccc(-c4ccccc4)cc3)C2)CC1 | -18%
CS(=O)(=O)N1CCC[C@@]2(CCN(C(=O)Nc3cccc(F)c3)C2)C1 | -18%
CC1=C(C2=C(C)C(C(C)C)C3=C(C(=O)C(O)C3O)C2O)C(O)C2=C(C(O)C(O)C2=O)C1C(C)C (centres undefined) | -3%
O=C(Oc1ccccc1)N1CCC2(CCCN(c3ccncc3)C2)CC1 | -22%
O=C(Cn1nc2ccccc2n1)N1CCOc2ccc(CN3CCc4sccc4C3)cc2C1 | 8%
COC(=O)N1CCC2(CCCN(Cc3ccccc3)C2)CC1 | -18%
CC(=O)c1ccccc1-c1ccc2c(c1)CC(CNC(=O)Cc1c[nH]c3ccccc13)O2 (centres undefined) | -34%
Cc1cc(C2CCCCC2)n(O)c(=O)c1 | -6%[56.6 µM]
COC1=CC(C)C2CC3OC(=O)CC4C(C)=C(OC)C(=O)C([C@]2(C)C1=O)[C@]34C (some centres undefined) | -10%
COCC1CCCN(Cc2ccc3c(c2)CN(C(=O)c2ccnn2C)CCO3)C1 (centres undefined) | -2%
COCCNc1cc(-c2ccccc2C)ncn1 | -33%
O=S(=O)(NCc1ccccc1Br)c1ccccc1Br | ?
COc1ccc2ccccc2c1CN1CCCC(n2cc(C(=O)N3CCCC3)nn2)C1 (centres undefined) | -3%
COc1cc(-c2noc(C)c2C#CC2(O)CCCCC2)cc(OC)c1OC | ?
O=[N+]([O-])c1cccc2cn[nH]c12 | -1%&-10%&-17%
COc1ccc(Oc2ncc3nc(-c4ccccc4)c(=O)n(C4CC4)c3n2)cc1 | -18%
COC(=O)[C@]12CCC(C)(C)C[C@@H]1[C@@H]1C(=O)C=C3[C@@]4(C)C=C(C#N)C(=O)C(C)(C)[C@@H]4CC[C@@]3(C)[C@]1(C)CC2 | ?
O=C(CN1Cc2ccccc2OC(c2ccsc2)C1)N1CCC(c2nc3ccccc3[nH]2)CC1 (centres undefined) | -18%
CCNc1ncc2nc(-c3cccs3)c(=O)n(Cc3ccc(F)cc3)c2n1 | 42%[activator]
CC(NC(=O)c1ccco1)c1nnc2n1CCN(Cc1ccc(N3CCCC3)cc1)CC2 (centres undefined) | ?
COc1ccccc1-c1oc2ccccc2c(=O)c1OC | ?
CC(C)C[C@@H](CSc1ccccc1)N1CCN(CCc2ccccc2)CCC1=O | ?
CSc1ccc(CN2CCOc3ccc(CN4CCCCC4CO)cc3C2)cc1 (centres undefined) | 2%
O=C(/C=C/c1ccccc1)NCCO | 4%
Cc1ccc(C(=O)NCCc2nnc3n2CCN(Cc2cc(C)cc(C)c2)CC3)cc1 | -15%
CC(C)NC(=O)c1cn(C2CCCN(C(=O)c3cc4ccccc4oc3=O)C2)nn1 (centres undefined) | 9%
F[Si-2](F)(F)(F)(F)F | -18%
CCC(Oc1ccccc1)C(=O)N[C@@H]1C(=O)N2[C@@H]1SC(C)(C)[C@@H]2C(=O)O (some centres undefined) | 5%
